Bioassay records from PubChem.
Mito fusion act = inhibitors of mitochondrial division or activators of mitochondrial fusion; S. cerevisiae fusion-defective mutant growth rescue, CellTiterGlo 48 h; Potency, µM (highest dose often 46.1 µM), without a hit: at the top dose growth rescue (activation), actives largely listed as activators; actives 0.23% (n = 320,000); AID 485298;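 also: % of control where 0% means no effect; nearly all actives have a fitted effect of over 45% in size; temperature-sensitive fusion mutants such as fzo1-1 at 37 °C on non-fermentable ethanol glycerol medium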
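Luminescent cell viability in 1536-well qHTS format served as the measure of rescued growth in ts fusion-mutant S. cerevisiae cultured on non-fermentable YPEG for 48 hours at 37C.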
VP16 counter = counter-screen for ROR gamma inhibitors: Gal4-VP16 reporter. Drosophila S2 Gal4-VP16 UAS-luciferase, luminescence, 20 h. Potency, µM (series often up to 53.6 µM), inactives show top-dose activity, negative = inhibition, most hits filed as inhibitors. actives 3.5% (n = 310,000). AID 2546;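 also: Gal4-VP16 expression switched on by copper sulfate through the metallothionein promoter; % is scaled to controls: 0 for no effect and ±100 for the full control effect; nearly all actives have a fitted effect of over 50% in size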
MBNL1 CUG block = blocks human MBNL1 binding to CUG repeat RNA; Q9NR56; TR-FRET MBNL1-His/biotin-(CUG)12 binding, 665/545 ratio; Potency, µM (doses to about 57.5 µM), for the others: top-dose activity change, negative = inhibition, usual class: inhibitors; actives 0.036% (n = 280,000); AID 2675; active = well fitted inhibition curve with a large enough effect in the signal ratio, with a control signal flat, not every such curve was filed as active; inconclusive = small, poorly fitted or top-dose-only effect, or effect the other way, or a change in a side signal; inactive = no such curve, though single readings can be large or run the other way; the % refers to the signal ratio; also: % is scaled to controls: 0 for no effect and ±100 for the full control effect
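TR-FRET readout: Ex 340 nm, 665/545 nm emission ratio, normalized to buffer-only (basal) and MBNL1-(CUG)12 controls. Complex of MBNL1-His with Biotin-(CUG)12, compounds 92 nM–58 uM, incubated 60 min at room temperature.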
ELG1 DNA repair = ELG1-dependent DNA repair inhibition. HEK293T ELG1-luciferase reporter, luminescence, 16 h; DNA damage induced by 5-fluorouridine. Potency, µM (series often up to 46.1 µM), without a hit: at the top dose activity change, negative = inhibition, actives largely listed as inhibitors. actives 2.3% (n = 330,000); also: % is scaled to controls: 0 for no effect and ±100 for the full control effect; nearly all actives have a fitted effect of over 55% in size
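Overnight (16 hr) co-exposure of 2,000 cells/well to 5-fluorouridine and compound at 37 °C preceded detection. Luciferase was quantified via ONE-Glo luminescence; loss of signal denotes inhibition.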
PKM2 act = increases activity of human pyruvate kinase M2 | P14618 | purified PKM2, Kinase-Glo ATP luminescence, activation; response scale: 0% is enzyme alone, no compound | Potency, µM (titrated, usually from 57.5 µM), inactives show at the top dose activation, actives largely listed as activators | actives 0.34% (n = 260,000); also: % is scaled to controls: 0 for no effect and ±100 for the full control effect; nearly all actives have a fitted effect of over 55% in size
Target sequence (P14618 whole entry, looked up): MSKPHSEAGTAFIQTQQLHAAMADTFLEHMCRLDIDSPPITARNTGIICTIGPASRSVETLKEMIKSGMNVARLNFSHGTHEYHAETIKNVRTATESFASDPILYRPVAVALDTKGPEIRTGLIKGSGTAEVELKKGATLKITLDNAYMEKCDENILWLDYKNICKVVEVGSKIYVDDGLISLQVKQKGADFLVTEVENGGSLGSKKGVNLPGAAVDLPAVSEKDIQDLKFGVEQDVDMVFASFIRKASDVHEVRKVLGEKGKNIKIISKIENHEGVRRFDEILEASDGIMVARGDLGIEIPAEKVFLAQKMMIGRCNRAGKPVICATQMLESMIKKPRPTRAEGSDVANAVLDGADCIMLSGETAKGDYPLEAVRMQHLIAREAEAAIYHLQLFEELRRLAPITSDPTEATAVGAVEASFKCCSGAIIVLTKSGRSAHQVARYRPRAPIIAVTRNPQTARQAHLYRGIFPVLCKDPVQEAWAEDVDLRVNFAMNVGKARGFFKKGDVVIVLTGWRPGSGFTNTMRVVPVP
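Purified hPK-M2 (>95% pure) converted ADP (0.1 mM final) to ATP with 0.5 mM PEP in 50 mM imidazole pH7.2, KCl, MgCl2, Tween 20, BSA; 1 h at room temperature. ATP detected by Kinase-Glo luminescence.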
Menin MLL FP TR = menin-MLL binding inhibition, Texas Red mutant peptide. actives 0.23% (n = 270,000). Potency, µM (doses to about 61.6 µM), for the others: at the top dose FP activity change, negative = inhibition, most hits filed as inhibitors. Menin + Texas Red MLL mutant peptide, fluorescence polarization; active = well fitted inhibition curve with a large enough effect in the polarisation, with a control signal flat, not every such curve was filed as active; inconclusive = small, poorly fitted or top-dose-only effect, or effect the other way, or a change in a side signal; inactive = no such curve, though single readings can be large or run the other way; the % refers to the polarisation; also: % of control where 0% means no effect; many of its hits are not listed in these tables
* = called active by the depositor; ? = inconclusive; . = not tested or not shown; & = joins results of further samples; ! = a repeat was not active; [ ] = remark or other dose. Unless noted, calls follow the shape of the dose curve; as a rule, active = well fitted curve in the direction sought with a large enough effect; inconclusive = small, poorly fitted or top-dose-only effect, or another doubt; inactive = no such curve, though single readings can be large; an effect the other way counts as inactive or inconclusive. Potency is read from the fitted curve at half-maximal effect. Not all compounds are listed; the hit share may differ from the screen's.

1. COc1ccc([C@H]2Sc3ccccc3N(CCN(C)C)C(=O)[C@H]2OC(C)=O)cc1
2. O=C(c1ccccc1)c1ccccc1
3. COc1cc2nc(N3CCN(C(=O)C4CCCO4)CC3)nc(N)c2cc1OC (centres undefined)
4. NCC(O)c1ccc(O)c(O)c1 (centres undefined)
5. Nc1nc2ncc(CNc3ccc(C(=O)N[C@@H](CCC(=O)O)C(=O)O)cc3)nc2c(=O)[nH]1
6. CC(=O)Nc1c(I)c(NC(C)=O)c(I)c(C(=O)O)c1I
7. NC1CONC1=O (centres undefined)
8. COc1ccc(OC)c([C@H](O)CNC(=O)CN)c1

| entry no. | 1 | 2 | 3 | 4 | 5 | 6 | 7 | 8 |
| --- | --- | --- | --- | --- | --- | --- | --- | --- |
| Mito fusion act | . | 1% | -37%&3%&-3%&0%[inhibitor] | -11% | 1% | -4%&2%&-6% | -1% | . |
| VP16 counter | 17%[17 µM] | -5%&-8% | -6%&-29%&-12% | . | 2% | -13%&-8% | 9% | -1%[17 µM] |
| MBNL1 CUG block | . | . | 2%&2%&3% | . | 9% | -10%&7% | . | . |
| ELG1 DNA repair | . | 25% | ? | . | 15% | 1%&10%&20% | . | . |
| PKM2 act | . | . | 1%&-2%&10% | . | -3% | -3%&1% | . | . |
| Menin MLL FP TR | -15%[24.8 µM] | -4% | ? | 0% | 15% | 0%&12% | 6%&-5% | -10%[24.8 µM] |

Single records, as listed above. Values in the order: Mito fusion act | VP16 counter | MBNL1 CUG block | ELG1 DNA repair | PKM2 act | Menin MLL FP TR
`CC(=O)Nc1c(I)c(NC(C)=O)c(I)c(C(=O)O)c1I` reads -4%&2%&-6% | -13%&-8% | -10%&7% | 1%&10%&20% | -3%&1% | 0%&12%
`O=C(c1ccccc1)c1ccccc1` reads 1% | -5%&-8% | . | 25% | . | -4%
`Nc1nc2ncc(CNc3ccc(C(=O)N[C@@H](CCC(=O)O)C(=O)O)cc3)nc2c(=O)[nH]1` reads 1% | 2% | 9% | 15% | -3% | 15%
`COc1ccc([C@H]2Sc3ccccc3N(CCN(C)C)C(=O)[C@H]2OC(C)=O)cc1` reads . | 17%[17 µM] | . | . | . | -15%[24.8 µM]
`COc1ccc(OC)c([C@H](O)CNC(=O)CN)c1` reads . | -1%[17 µM] | . | . | . | -10%[24.8 µM]

3 records drawn at random from the list so far:
7. NC1CONC1=O (centres undefined)
6. CC(=O)Nc1c(I)c(NC(C)=O)c(I)c(C(=O)O)c1I
8. COc1ccc(OC)c([C@H](O)CNC(=O)CN)c1

| entry no. | 7 | 6 | 8 |
| --- | --- | --- | --- |
| Mito fusion act | -1% | -4%&2%&-6% | . |
| VP16 counter | 9% | -13%&-8% | -1%[17 µM] |
| MBNL1 CUG block | . | -10%&7% | . |
| ELG1 DNA repair | . | 1%&10%&20% | . |
| PKM2 act | . | -3%&1% | . |
| Menin MLL FP TR | 6%&-5% | 0%&12% | -10%[24.8 µM] |

(more compounds)
9. CC(=O)OCC(=O)C1(O)CCC2C3CCC4=CC(=O)C=CC4(C)C3C(O)CC21C (centres undefined)
10. CSc1ccc(C(=O)c2[nH]c(=O)[nH]c2C)cc1
11. C#C[C@@]1(O)CC[C@@H]2[C@@H]3CCC4=C(CCC(=O)C4)[C@H]3CC[C@]21C
12. C#C[C@]1(O)CCC2C3CCC4=CC(=O)CCC4C3CC[C@@]21C (some centres undefined)
13. Nc1ccn([C@@H]2CS[C@H](CO)O2)c(=O)n1
14. COc1ccc2cc3[n+](cc2c1OC)CCc1cc2c(cc1-3)OCO2
15. Nc1ncnc2c1ncn2[C@@H]1O[C@H](COP(=O)(O)OP(=O)(O)OP(=O)(O)O)[C@@H](O)[C@H]1O
16. COc1cc2nc(N3CCN(C(=O)[C@@H]4CCCO4)CC3)nc(N)c2cc1OC

| entry no. | 9 | 10 | 11 | 12 | 13 | 14 | 15 | 16 |
| --- | --- | --- | --- | --- | --- | --- | --- | --- |
| Mito fusion act | -4% | 13µM*! | . | . | 4% | 3%&4% | -20% | -2% |
| VP16 counter | 3% | -1% | 1%[17 µM] | -5% | -9%&1%&-12% | ? | 6% | -9% |
| MBNL1 CUG block | 2% | ? | . | . | 2% | ? | . | 2% |
| ELG1 DNA repair | 0% | ? | . | . | . | ? | 18% | -7% |
| PKM2 act | 0% | . | . | . | 1% | -2% | . | -3% |
| Menin MLL FP TR | . | -10% | -20%[24.8 µM] | 0% | 7%&-7%&-3% | -20% | 7% | 0% |

17. Nc1nc2c(ncn2COCCO)c(=O)[nH]1
18. CN(C)CCCN1c2ccccc2Sc2ccc(Cl)cc21
19. OC[C@@H](O)[C@@H](O[C@H]1O[C@H](CO)[C@@H](O)[C@H](O)[C@H]1O)[C@H](O)[C@@H](O)CO
20. Nc1nc2ncc(CNc3ccc(C(=O)NC(CCC(=O)O)C(=O)O)cc3)nc2c(=O)[nH]1 (centres undefined)

| entry no. | 17 | 18 | 19 | 20 |
| --- | --- | --- | --- | --- |
| Mito fusion act | -5%&-5% | -124%&-8%&-12%[inhibitor] | -1% | . |
| VP16 counter | 0% | -16% | 0% | -3%&-4%&-1% |
| MBNL1 CUG block | -7% | 4%&-7% | 2% | . |
| ELG1 DNA repair | 6% | -28%&5% | . | . |
| PKM2 act | 1% | -12%&4% | -1% | . |
| Menin MLL FP TR | 8% | ? | -13% | -24%&21%&17% |
